Compound activity deposited in PubChem by several laboratories.
AF4-AF9 inh: inhibitors of AF4 peptide binding to AF9, primary screen, biochemical, AlphaScreen, biotin-AF4 peptide, FLAG-AF9, single point | inhibition, % at 10 µM | Protein AF-9 (Homo sapiens), P42568 | 350,000 compounds, 0.47% hits;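 active means every replicate reaching a set inhibition limit, whatever the replicate mean, cut at about 25% in these data; inconclusive means mean inhibition reaches that limit but some replicates miss it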;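 further: 0% = plate neutral control median and 100% = total signal loss; the record names both 10 and 1 µM as test concentration; the first replicate is given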
Beta cell apopt: inhibitors of cytokine-induced beta cell apoptosis, primary screen, luminescence. INS-1E cytokine-induced death, ATP luminescence, 48 h; percent of positive-control rescue, neutral wells zero. protection from apoptosis, % (concentration not given with the values). 300,000 compounds, 0.8% hits. AID 435005, 2010;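 active means all replicates at 75% or more, or half of them and the mean; inconclusive means half reach 75% but not the mean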;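 further: 0% = cytokine-treated negative control wells and 100% = positive control rescue; higher means more ATP so stronger rescue from cytokine killing; wells of about 40 µL received 100 nL stock; the first replicate is given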
Vif TR-FRET: inhibitors of Vif binding to APOBEC3G peptide, primary screen, biochemical, TR-FRET, GST-Vif 1-94, biotin-A3G peptide, dose response retest (AID 1117319); Virion infectivity factor (Human immunodeficiency virus type 1 group M subtype B (isolate …; inhibition, %; hits with a dose series show IC50 in µM; 260,000 compounds, 0.57% hits; TR-FRET GST-Vif / biotin-A3G peptide binding; higher % means a stronger effect; test concentration not given here; strong numbers were not always called active;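 active means above the screen mean plus three standard deviations and confirmed in dose response; inconclusive means results disagree or hit not tested in dose response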;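 further: Vif residues 1-94 fused to GST binding biotinylated APOBEC3G peptide 110-148; 0% = full assay without inhibitor and 100% = GST in place of GST-Vif; retest series ran down from 100 µM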
LANA-H2B inh: blockers of LANA interaction with H2A/H2B – biochemical, FP readout, HTS, primary screen; AID 2629, 2010; Protein LANA1 (Human herpesvirus 8 type P (isolate GK18)), Q9QR71; cell-free LANA-H2A/H2B peptide, fluorescence polarization; 320,000 compounds, 0.6% hits; inhibition, % (test concentration not listed); in the data active means inhibition mostly above about 10%, no sharp cut-off; inactive means mostly below about 6.7%;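 further: stock transfer was 7.5 nL into about 10 µL; 0% = median of vehicle wells and 100% = median of positive control wells; one replicate is shown; the record names a cut of 25% in any replicate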
Target sequence (Q9QR71 whole entry, looked up): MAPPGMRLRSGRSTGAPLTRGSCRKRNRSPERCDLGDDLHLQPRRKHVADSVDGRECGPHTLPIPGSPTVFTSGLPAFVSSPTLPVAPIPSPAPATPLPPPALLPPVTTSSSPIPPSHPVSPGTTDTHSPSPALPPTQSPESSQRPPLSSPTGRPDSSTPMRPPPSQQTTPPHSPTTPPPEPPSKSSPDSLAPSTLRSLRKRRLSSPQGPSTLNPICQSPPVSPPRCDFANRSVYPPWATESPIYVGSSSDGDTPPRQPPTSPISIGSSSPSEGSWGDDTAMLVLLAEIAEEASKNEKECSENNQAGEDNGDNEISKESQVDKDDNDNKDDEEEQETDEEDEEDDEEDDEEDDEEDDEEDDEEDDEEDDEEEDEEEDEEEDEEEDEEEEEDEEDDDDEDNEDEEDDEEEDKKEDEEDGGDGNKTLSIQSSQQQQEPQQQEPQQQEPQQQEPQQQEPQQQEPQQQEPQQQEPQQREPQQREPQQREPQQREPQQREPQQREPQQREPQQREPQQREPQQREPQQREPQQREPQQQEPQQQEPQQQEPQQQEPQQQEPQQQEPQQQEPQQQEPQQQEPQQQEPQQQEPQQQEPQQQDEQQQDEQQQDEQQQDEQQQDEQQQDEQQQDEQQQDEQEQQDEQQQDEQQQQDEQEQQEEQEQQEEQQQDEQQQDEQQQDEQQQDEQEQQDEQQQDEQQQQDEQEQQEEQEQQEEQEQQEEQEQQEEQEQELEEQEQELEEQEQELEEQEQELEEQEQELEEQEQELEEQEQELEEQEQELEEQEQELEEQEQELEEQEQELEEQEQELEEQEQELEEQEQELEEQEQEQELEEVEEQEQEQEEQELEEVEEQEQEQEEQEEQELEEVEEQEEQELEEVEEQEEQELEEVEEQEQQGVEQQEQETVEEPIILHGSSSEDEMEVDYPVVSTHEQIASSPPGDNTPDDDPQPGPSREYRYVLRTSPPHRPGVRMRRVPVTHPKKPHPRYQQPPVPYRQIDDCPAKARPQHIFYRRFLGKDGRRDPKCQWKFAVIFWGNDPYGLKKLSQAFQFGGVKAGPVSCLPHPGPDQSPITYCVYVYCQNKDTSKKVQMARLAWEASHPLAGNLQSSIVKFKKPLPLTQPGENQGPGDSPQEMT
T cruzi inh: inhibitors of intracellular T. cruzi growth, primary screen, luminescence, NIH3T3 host cells; T. cruzi beta-gal in NIH3T3, 90 h; inhibition, % (concentration not given with the values); 300,000 compounds, 1.4% hits; AID 1885, 2009;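 active means mean inhibition across valid replicates above about 55%, limit read from the data; inconclusive means mean below that limit but half or more replicates reach it; inactive means mean below it, under half of replicates reach it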;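 further: signal also drops with host cell toxicity which is not excluded here; 0% = plate median of DMSO wells and 100% = zero luminescence signal; higher percent means less beta-gal luminescence so fewer parasites; stock transfer was 50 nL into about 50 µL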
Calb FLC: C. albicans growth inhibition with fluconazole, primary screen, CaCi-2 strain, Alamar Blue fluorescence. C. albicans CaCi-2 (fluconazole-resistant clinical isolate) + fluconazole, 48 h. growth inhibition, % (no concentration beside the values). 300,000 compounds, 0.57% hits. AID 1979, 2009;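 active means most replicates above 75%; inconclusive means exactly half above 75%; inactive means most below 75%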;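 further: all wells also contain fluconazole at 8 µg/ml as a sub-toxic cotreatment; 0% = median of DMSO wells and 100% = median of geldanamycin control wells; wells of about 8 µL received 7.5 nL stock; the first replicate is given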
Bfl-1 A1 inh: caspase 3/7 activation in MEF A1-2A-BIM cells, primary screen, A1 inhibitor project, cell-based, luminescence, HTS; Caspase-Glo 3/7 luminescence, 3 h; percent of clofoctol response, vehicle zero; 330,000 compounds, 0.066% hits; caspase activation, % (concentration not given with the values);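 active means over half of replicate activation scores above 10%, or exactly half above 10 with the replicate mean above 10; inconclusive means replicate mean below 10 yet half the replicates above 10; inactive means over half of replicates below 10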;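 further: wells of about 30 µL received 50 nL stock; many hits fall short of the cut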
RanGTP-Impb inh: inhibitors of RanGTP-importin-beta interaction, primary screen, biochemical, FRET, CFP-Ran, YFP-importin-beta, homogeneous. Ran GTPase (GTP-bound) - importin-beta complex. cell-free CFP-Ran/YFP-importin-beta FRET ratio. inhibition, % (concentration not given with the values). 300,000 compounds, 1.1% hits;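 active means most replicates above 15%; inconclusive means exactly half above 15%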;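 further: 0% = DMSO wells and 100% = Ran loaded with GDP instead of GTP; wells of about 40 µL received 100 nL stock; the first replicate is given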
An asterisk follows results filed as active. Outcome played no part in choosing rows, and some 4.3% of all compounds hit somewhere here.

Results for Cc1ccsc1C(=O)NNC(=O)c1ccc(NS(=O)(=O)c2cccs2)cc1 ?
AF4-AF9 inh: -6.3; Beta cell apopt: 0; LANA-H2B inh: -0.4; T cruzi inh: 12; Calb FLC: -1; Bfl-1 A1 inh: 0.7; RanGTP-Impb inh: inconclusive

What do the screens show for `Cc1cc(C(=O)OCC(=O)NCc2cccs2)c2ccccc2n1`?
AF4-AF9 inh: -6.9; Beta cell apopt: -1; Vif TR-FRET: 1%; LANA-H2B inh: -1.9; T cruzi inh: -11; Calb FLC: 3; Bfl-1 A1 inh: 1.4; RanGTP-Impb inh: inconclusive

What do the screens show for `CCc1ccc(NC(=O)C2CCN(S(=O)(=O)c3cnc[nH]3)CC2)cc1`?
AF4-AF9 inh: -5.8; Beta cell apopt: -4; LANA-H2B inh: -4.0; T cruzi inh: -29; Calb FLC: -1; Bfl-1 A1 inh: -1.3; RanGTP-Impb inh: 2.5

What do the screens show for `COc1ccc(OCC(=O)NNC(=O)c2nn(C)c(=O)c3ccccc23)cc1`?
Beta cell apopt: -4; LANA-H2B inh: 4.2; T cruzi inh: 6; Calb FLC: -6; Bfl-1 A1 inh: 0.4; RanGTP-Impb inh: 1.7

What do the screens show for `CCCN(Cc1ccccc1)S(=O)(=O)c1ccc(N2C(=O)CCC2=O)cc1`?
Beta cell apopt: -8; Vif TR-FRET: -6%; LANA-H2B inh: -1.9; T cruzi inh: 6; Calb FLC: -4; Bfl-1 A1 inh: -0.6; RanGTP-Impb inh: 1.4

What do the screens show for `CCOc1ccc(N2C(=O)CC(NCC3CCCO3)C2=O)cc1` (stereo not given)?
AF4-AF9 inh: -1.1; Beta cell apopt: -4; Vif TR-FRET: -7%; LANA-H2B inh: -7.2; T cruzi inh: -4; Calb FLC: 24; Bfl-1 A1 inh: 0.0; RanGTP-Impb inh: inconclusive

What do the screens show for `O=C(COc1ccc(-n2cnnn2)cc1)Nc1ccccc1Cl`?
AF4-AF9 inh: 7.0; LANA-H2B inh: 2.9; T cruzi inh: -6; Calb FLC: 13; Bfl-1 A1 inh: 1.3; RanGTP-Impb inh: -1.1

Results for CCOC(=O)C1CCN(C(=O)Cn2nc(C)n3c(cc4cc(C)ccc43)c2=O)CC1 ?
AF4-AF9 inh: -3.6; Beta cell apopt: 10; LANA-H2B inh: 2.3; T cruzi inh: 6; Calb FLC: 7; Bfl-1 A1 inh: 1.0; RanGTP-Impb inh: 2.8

How did CCC(C)C(NC(=O)C(C)NC(=O)CNC(=O)CNC(=O)OCc1ccccc1)C(=O)OC (stereo not given) do in these assays?
Beta cell apopt: -4; Vif TR-FRET: 0%; LANA-H2B inh: 5.9; T cruzi inh: -12; Calb FLC: -4; Bfl-1 A1 inh: 0.0; RanGTP-Impb inh: 2.4

Results for Cc1cnc(C(=O)NCc2ccc(Cl)cc2Cl)cn1 ?
AF4-AF9 inh: -1.6; Beta cell apopt: -2; Vif TR-FRET: -5%; LANA-H2B inh: 2.2; T cruzi inh: 1; Calb FLC: 5; Bfl-1 A1 inh: 0.8; RanGTP-Impb inh: -2.3

What do the screens show for `Cc1ccc(S(=O)(=O)N(CC(=O)NCc2ccco2)c2ccccc2C)cc1`?
AF4-AF9 inh: -4.8; Beta cell apopt: 6; LANA-H2B inh: -0.3; T cruzi inh: 4; Calb FLC: inconclusive; Bfl-1 A1 inh: 0.0; RanGTP-Impb inh: 4.1

Results for O=C(NCc1ccco1)c1sc2cc(F)ccc2c1Cl ?
Beta cell apopt: 0; Vif TR-FRET: -2%; LANA-H2B inh: 3.0; T cruzi inh: 2; Calb FLC: 23; Bfl-1 A1 inh: -1.7; RanGTP-Impb inh: 3.8

How did CC(=O)Nc1ccc(C2=NNC(=NCC3CCCO3)SC2)cc1 (stereo not given) do in these assays?
AF4-AF9 inh: -0.1; Beta cell apopt: -5; Vif TR-FRET: 14%; LANA-H2B inh: 0.7; Bfl-1 A1 inh: 0.1

How did CN(CCC#N)C(=O)COC(=O)c1ccc2[nH]c3c(c2c1)CCCC3 do in these assays?
AF4-AF9 inh: 2.6; Vif TR-FRET: 6%; LANA-H2B inh: 5.5; T cruzi inh: 9; Calb FLC: -16; Bfl-1 A1 inh: 0.7; RanGTP-Impb inh: 10

What do the screens show for `CCOc1ccc(CC(C(N)=O)C(N)=O)cc1`?
AF4-AF9 inh: -0.5; Beta cell apopt: -6; Vif TR-FRET: 2%; LANA-H2B inh: -9.5; T cruzi inh: -3; Calb FLC: 4; Bfl-1 A1 inh: 0.4; RanGTP-Impb inh: 5.5

Results for CC(C)Cn1cc(C(=O)NCC2CCCO2)c2c3ccccc3n(C)c2c1=O (stereo not given) ?
Beta cell apopt: -1; Vif TR-FRET: -2%; LANA-H2B inh: -0.6; T cruzi inh: 12; Calb FLC: -4; Bfl-1 A1 inh: 1.6; RanGTP-Impb inh: -2.6

How did Clc1ccc2c(N3CCOCC3)ccnc2c1 do in these assays?
AF4-AF9 inh: -1.4; Beta cell apopt: -2; LANA-H2B inh: -0.9; T cruzi inh: 10; Calb FLC: -3; Bfl-1 A1 inh: 1.3; RanGTP-Impb inh: 1.3

What do the screens show for `CCC1(CC)NC(=O)N(CC(=O)OCC(=O)Nc2sccc2C#N)C1=O`?
AF4-AF9 inh: -1.4; Beta cell apopt: -3; Vif TR-FRET: -2%; LANA-H2B inh: 3.3; T cruzi inh: -3; Calb FLC: -1; Bfl-1 A1 inh: 1.5; RanGTP-Impb inh: 5.2

How did Cc1ccc(NC(=O)[C@H](Cc2c[nH]c3ccccc23)NC(=O)[C@@H]2Cc3ccccc3CN2)c(C)c1 do in these assays?
AF4-AF9 inh: 11; Beta cell apopt: -3; LANA-H2B inh: -7.2; T cruzi inh: 6; Calb FLC: 9; Bfl-1 A1 inh: 1.3; RanGTP-Impb inh: -0.8

How did Cn1c(N)c(C(=O)COC(=O)CCC(=O)c2cccs2)c(=O)n(C)c1=O do in these assays?
Beta cell apopt: 2; Vif TR-FRET: -3%; LANA-H2B inh: -1.5; T cruzi inh: -10; Calb FLC: -17; Bfl-1 A1 inh: 0.3; RanGTP-Impb inh: -1.4

What do the screens show for `O=C(CN1CCC(c2nc3ccccc3[nH]2)CC1)NCc1ccc2c(c1)OCO2`?
Beta cell apopt: 1; Vif TR-FRET: -1%; LANA-H2B inh: -6.1; T cruzi inh: 20; Calb FLC: -9; Bfl-1 A1 inh: -0.5; RanGTP-Impb inh: 5.4

Results for CN(c1ccccc1)S(=O)(=O)c1nnc(NC(=O)COc2ccccc2F)s1 ?
AF4-AF9 inh: 1.8; Beta cell apopt: 7; LANA-H2B inh: -6.6; T cruzi inh: -13; Calb FLC: -25; Bfl-1 A1 inh: 0.0; RanGTP-Impb inh: -6.5

How did COc1cccc(CNC(=O)COC(=O)/C=C/c2ccc(SC)cc2)c1 do in these assays?
AF4-AF9 inh: -2.3; Beta cell apopt: -1; LANA-H2B inh: 2.5; Bfl-1 A1 inh: -1.4

How did Cc1ccc(S(=O)(=O)NCC2CCCO2)cc1[N+](=O)[O-] (stereo not given) do in these assays?
Beta cell apopt: -1; Vif TR-FRET: -8%; LANA-H2B inh: -3.7; T cruzi inh: -22; Calb FLC: 3; Bfl-1 A1 inh: 0.7; RanGTP-Impb inh: 2.6

How did COc1ccc(CCN2C(=O)C(O)=C(C(=O)c3ccco3)C2c2cccs2)cc1OC (stereo not given) do in these assays?
Beta cell apopt: 0; Vif TR-FRET: -14%; LANA-H2B inh: 2.1; T cruzi inh: -14; Calb FLC: -7; Bfl-1 A1 inh: -0.8; RanGTP-Impb inh: 2.5

What do the screens show for `O=C(Nc1ccnn1C1CCN(Cc2ccc(CO)o2)CC1)c1ccccc1Cl`?
AF4-AF9 inh: -0.1; Beta cell apopt: 0; LANA-H2B inh: 4.6; T cruzi inh: -3; Calb FLC: -1; Bfl-1 A1 inh: 1.2; RanGTP-Impb inh: 6.8

Results for O=C(c1cc(-c2cccc(Cl)c2)nc2ccccc12)N1CCCC1 ?
AF4-AF9 inh: -0.2; Beta cell apopt: 3; LANA-H2B inh: -0.9; T cruzi inh: 28; Calb FLC: 1; Bfl-1 A1 inh: -0.4; RanGTP-Impb inh: -2.0

Results for Cc1cc(C)n(-c2ccc(Cl)c(Cl)c2)n1 ?
AF4-AF9 inh: 0.5; Beta cell apopt: -4; Vif TR-FRET: -3%; LANA-H2B inh: -6.3; T cruzi inh: -13; Calb FLC: -2; Bfl-1 A1 inh: 1.1; RanGTP-Impb inh: inconclusive

What do the screens show for `Cc1cc(C)cc(NS(=O)(=O)c2ccc3[nH]c(=O)ccc3c2)c1`?
AF4-AF9 inh: -2.7; Beta cell apopt: 0; Vif TR-FRET: 2%; LANA-H2B inh: 2.5; T cruzi inh: 18; Calb FLC: -1; Bfl-1 A1 inh: 0.7; RanGTP-Impb inh: -3.1

How did N#C/C(=C\c1ccccc1C(=O)O)c1nc2ccccc2[nH]1 do in these assays?
AF4-AF9 inh: -1.5; Beta cell apopt: -1; Vif TR-FRET: -3%; LANA-H2B inh: 0.7; T cruzi inh: -3; Calb FLC: 9; Bfl-1 A1 inh: -0.2; RanGTP-Impb inh: 5.0

What do the screens show for `CC(C)OC(=O)/C(C#N)=C\c1cccnc1`?
AF4-AF9 inh: -2.3; Beta cell apopt: -2; Vif TR-FRET: 18%; LANA-H2B inh: -0.5; T cruzi inh: -6; Calb FLC: 2; Bfl-1 A1 inh: 0.9; RanGTP-Impb inh: -0.5

Results for O=C(COC(=O)c1ccccc1Oc1ccccc1)NCc1ccco1 ?
Beta cell apopt: -5; Vif TR-FRET: 23%; LANA-H2B inh: 4.7; T cruzi inh: 1; Calb FLC: -12; Bfl-1 A1 inh: 0.0; RanGTP-Impb inh: 0.6

What do the screens show for `COc1cccc(/C=C/C(=O)OCC(=O)Nc2ccc(Cl)c(S(=O)(=O)N(C)C)c2)c1`?
AF4-AF9 inh: 3.2; Beta cell apopt: -11; Vif TR-FRET: 1%; LANA-H2B inh: 5.1; T cruzi inh: -10; Calb FLC: 24; Bfl-1 A1 inh: -0.4; RanGTP-Impb inh: -1.2

How did Cc1ccc(NC(=O)COC(=O)CSCC(=O)Nc2cc(C)on2)c(C)c1 do in these assays?
AF4-AF9 inh: -0.5; Beta cell apopt: 1; Vif TR-FRET: 4%; LANA-H2B inh: -7.0; T cruzi inh: -7; Calb FLC: 5; Bfl-1 A1 inh: -0.2; RanGTP-Impb inh: -2.3

What do the screens show for `O=C(O)CCC(=O)Nc1nc2ccccc2s1`?
Beta cell apopt: -13; Vif TR-FRET: 5%; LANA-H2B inh: 4.1; T cruzi inh: 0; Calb FLC: -7; Bfl-1 A1 inh: -0.6; RanGTP-Impb inh: 6.7
